# Screening data (PubChem BioAssay)
# VDR inhibitor – Inhibitors of the vitamin D receptor (VDR): qHTS; Vitamin D3 receptor (Homo sapiens), P11473; VDR-SRC2-3 peptide fluorescence polarization, 2 h; Potency, µM, inactives show max response, negative = inhibition, actives largely listed as inhibitors; 400,000 compounds, 0.93% hits; AID 504847, 2011; active means well fitted inhibition curve with a large enough effect; inconclusive means small, poorly fitted or top-dose-only effect, or another doubt; inactive means no such curve, though single readings can be large or run the other way; further: series mostly up to about 120 µM
# Target sequence (P11473 whole entry, looked up): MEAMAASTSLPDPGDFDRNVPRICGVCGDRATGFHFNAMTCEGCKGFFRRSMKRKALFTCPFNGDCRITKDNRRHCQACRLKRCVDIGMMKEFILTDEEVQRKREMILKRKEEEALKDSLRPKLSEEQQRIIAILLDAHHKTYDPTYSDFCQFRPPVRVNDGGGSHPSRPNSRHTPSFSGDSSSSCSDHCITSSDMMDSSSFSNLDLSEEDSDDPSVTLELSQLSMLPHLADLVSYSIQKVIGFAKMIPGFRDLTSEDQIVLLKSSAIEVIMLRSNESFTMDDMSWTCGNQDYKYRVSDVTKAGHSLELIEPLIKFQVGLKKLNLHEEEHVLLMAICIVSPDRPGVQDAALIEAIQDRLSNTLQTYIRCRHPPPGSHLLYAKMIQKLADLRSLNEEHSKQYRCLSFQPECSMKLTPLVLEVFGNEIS
#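 Reagent solutions, kept cold and dark, are dispensed first; compounds are then pinned in at 23 nl, plates briefly spun, and incubated 2 h at ambient temperature. Inhibition of VDR–SRC2-3 peptide binding is read by fluorescence polarization.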
# The depositor's hits bear a star; u = inconclusive; & = joins results of further samples; [ ] = remark or other dose. On the % scale 0 is the no-effect control and ±100 the full control effect; potency means the concentration at half of the fitted maximal effect. Only part of the results is shown (hit frequency here may not be typical).
SMILES,VDR inhibitor
Cc1cccc(N2CCN(C(=O)c3ccc4c(c3)NC(=O)C(CSCc3cccc(F)c3)N4)CC2C)c1 (stereo unspecified),u
O=C(COc1ccc(Br)cc1)N1CCNC1=O,7%
Cc1ccccc1NS(=O)(=O)c1ccc2[nH]cc(C(=O)N(C)Cc3ccco3)c(=O)c2c1,8%
COc1ccc(C(CC(=O)NCc2ccccc2)N2Cc3ccccc3C2=O)cc1 (stereo unspecified),3%
CC(=O)NC(Cc1cccc(C)c1)C(=O)NC1CCN(c2ncccc2[N+](=O)[O-])CC1 (stereo unspecified),-14%
CC(OC(=O)CCC(=O)c1cccs1)C(=O)NC1CCCCC1C (stereo unspecified),40%[activator]
CC1(NC(=O)Cc2c(Cl)cccc2Cl)CCS(=O)(=O)C1 (stereo unspecified),9%
CS(=O)(=O)N1CCC(C(=O)Nc2ccccc2F)CC1,11%
CC(C)(C)N1C(=O)[C@H]2[C@@H](c3ccc(Br)cc3)N3C(=O)N(c4cccc(F)c4)C(=O)[C@@]3(Cc3ccccc3)[C@H]2C1=O,8%
O=C(Nc1nc(-c2cc(F)ccc2F)cs1)c1cccc(N2C(=O)CCC2=O)c1,-5%

# Of the compounds above, these contain bromine:
SMILES,VDR inhibitor
O=C(COc1ccc(Br)cc1)N1CCNC1=O,7%
CC(C)(C)N1C(=O)[C@H]2[C@@H](c3ccc(Br)cc3)N3C(=O)N(c4cccc(F)c4)C(=O)[C@@]3(Cc3ccccc3)[C@H]2C1=O,8%

# Later entries
SMILES,VDR inhibitor
COc1ccc(CN2C(=O)c3cccnc3C2=O)cc1S(=O)(=O)N1CCCCC1,-9%
COc1ccc(OC)c(CNC(=O)c2nn(-c3ccc(OC)c(Cl)c3)c(=O)c3c2c2ccccc2n3C)c1,-3%
CCn1c(SCC(=O)NNC(=S)Nc2ccc(C)cc2)nnc1-c1ccc(Cl)cc1,-13%
COC(=O)c1ccccc1NC(=O)CSc1nc(N)cc(=O)[nH]1,-17%
Cc1cccc(CN(C)CCc2ccccn2)c1,-16%
O=C1c2ccccc2C2(c3ccccc3)NCCN12 (stereo unspecified),11%
O=C(c1cnn(C(=O)COc2ccc(Cl)cc2)c1)c1ccccc1O,-24%
O=C(O)c1cccc(N/N=C/c2ccc(-c3ccccc3)cc2)c1,-16%
c1cncc(Nc2nc(-c3ccncc3)cs2)c1,10%
CSc1nc2sc3c(c2c(=O)n1Cc1ccccc1)CCC(C(C)(C)C)C3 (stereo unspecified),2%
CC1C=CCC2C(=O)N(c3cccc(C(=O)NCc4ccccc4)c3)C(=O)C12 (stereo unspecified),24%
Cc1ccc(CNC(=O)CCS(=O)(=O)c2cc3c(cc2C)NC(=O)CO3)cc1,9%&15%
C/C(=N\NC(=O)CO/N=C(\C)c1cccs1)c1ccc(N)cc1,-1%
Cc1cccc(N(C(=O)c2snc(C(N)=O)c2N)C(C(=O)NC2CCCC2)c2ccco2)c1 (stereo unspecified),-6%
COc1cccc(/C=N/NC(=O)c2ccoc2C)c1O,7%
O=C(CSc1nnc(-c2ccccc2F)o1)Nc1ccccc1Cl,-12%
COc1ccc(C)cc1NC(=O)C(=O)c1cn(CC(=O)N2CCCC2)c2ccccc12,5%
O=C(NN=C1CCCCCC1)c1ccc(Cl)s1,-12%
CCc1cccc2c(C=C(C#N)C#N)cn(CC(=O)N3CCCCC3)c12,6%
CN1CCN(C(=O)Cn2c(-c3cccs3)cc3cc(Cl)ccc32)CC1,14%
COc1ccc(CCNC(=O)COc2cc(O)c3c(c2)OC(C)(C)CC3=O)cc1OC,-18%
Cc1[nH]c(/C=C2/C(=O)Nc3ccc(S(=O)(=O)Cc4c(Cl)cccc4Cl)cc32)c(C)c1C(=O)N1CCCC1CN1CCCC1 (stereo unspecified),28%
Cc1[nH]c2ccccc2c1C1=CN2CCS(=O)(=O)N=C2S1,-8%
COc1cc(NC(=O)Nn2cnnc2)cc(OC)c1OC,2%
COc1cccc(N2CCN(C(=O)c3cn(Cc4ccccc4)nc3-c3cccnc3)CC2)c1,-8%
CCN1CCN(Cc2ccc(OCc3ccccc3)cc2)CC1,-10%
COc1ccc(NC(=O)N(C)C[C@H]2Oc3ccc(NC(=O)CCN4CCOCC4)cc3C(=O)N([C@H](C)CO)C[C@@H]2C)cc1,10%
CCOc1ccc(N2C(=O)CC(C(C)c3ccccc3)C2=O)cc1 (stereo unspecified),4%
Cc1ccc(-n2nc3c(=O)n(CC(=O)NC(C)CCc4ccccc4)nc(C)c3c2C)cc1 (stereo unspecified),0%
O=C(CSc1nnc(SCc2cccc3ccccc23)s1)c1ccc2c(c1)OCO2,-22%
CN(C)c1ccc(/C=C/c2noc(-c3ccccc3O)n2)cc1,-5%
CCOCC(O)CSCc1ccc(Cl)cc1 (stereo unspecified),-5%
COc1ccc(NC(=O)C(C/C=C(/C)Cl)C(C)=O)cc1 (stereo unspecified),2%
CCOc1ccc(NC(=O)CC2C(=O)NCCN2C(=O)Nc2ccccc2)cc1 (stereo unspecified),-25%
Nc1ccc(Nc2ccc([N+](=O)[O-])cc2[N+](=O)[O-])cc1,-6%
Cc1ccc(N(CC(=O)NC2CCCC2)C(=O)CCC(=O)Nc2nccs2)cc1C,1%
O=C(c1cnc(Cl)c(Cl)c1)N1CCC(Cc2ccccc2)CC1,-3%
C/C(=N\N1CCN(c2ccc(Cl)cc2)CC1)c1cccc([N+](=O)[O-])c1,5%
CN(C)c1ccc(C(=S)N2CCN(c3ccc([N+](=O)[O-])cc3)CC2)cc1,79µM*
COc1ccc(CNC(=O)C2CC(C)=CCC2C(=O)O)cc1 (stereo unspecified),9%

# Two compounds drawn at random from the list so far, as already listed:
SMILES,VDR inhibitor
O=C1c2ccccc2C2(c3ccccc3)NCCN12 (stereo unspecified),11%
Cc1cccc(N(C(=O)c2snc(C(N)=O)c2N)C(C(=O)NC2CCCC2)c2ccco2)c1 (stereo unspecified),-6%

# Further structures follow:
SMILES,VDR inhibitor
CCC(=O)N1CCCc2cc(S(=O)(=O)N3CCC(C(=O)NCc4ccc(F)cc4)CC3)ccc21,0%
Oc1cccc(C=NN=C2c3ccccc3-c3ccccc32)c1,-16%
O=C1CC(=O)N(Cc2ccco2)C(=S)N1,u
CCCCS(=O)(=O)N1CCN(S(=O)(=O)c2cccs2)CC1,-13%
O=C(CCCc1nc2ccccc2s1)N1CCN(c2ccccc2)CC1,1%
CCCCOc1ccc(C(C)NC(=O)CCS(=O)(=O)Cc2ccc(Cl)cc2)cc1 (stereo unspecified),2%
CCOc1ccc(CCNC(=O)COC(=O)COc2ccc(Br)cc2)cc1OCC,5%
S=C(NCc1cccs1)Nc1cccc(Cl)c1,5%
CCOC(=O)N1CCN(C(=O)c2cc(-c3ccc(F)cc3)[nH]c2C)CC1,-1%
COc1ccc(C(CNC(=O)C2CC(=O)N(Cc3ccccc3)C2)N2CCCC2)cc1 (stereo unspecified),-11%
COCCCNC(=O)c1c(C)nn(-c2ccc(F)cc2)c1-n1cccc1,12%
COc1ccccc1C(=O)Nc1nnc(SCC(=O)NC2CCCC2)s1,4%
Cc1ccc(S(=O)(=O)NNC(=S)Nc2ccc(Cl)cc2)cc1,-3%
Cc1cc(/C=C2/SC(=S)N(c3ccc([N+](=O)[O-])cc3)C2=O)c(C)n1-c1cccnc1,-9%
COc1ccc(-c2noc(CN(C(C)C)S(=O)(=O)c3ccc(Br)cc3)n2)cc1,-1%
CCN(CC)CCCC(C)NC(=O)c1c(NC(=O)c2ccccc2)sc2c1CCCC2 (stereo unspecified),-5%
CCOC(=O)c1ccc(Nc2ncnc3ccc(C)cc23)cc1,-7%
COC(=O)[C@@]12OC[C@]34[C@H]([C@@H](O)[C@@H]1O)[C@@]1(C)C(=O)C(O[C@@H]5OC(CO)[C@@H](O)[C@@H](O)[C@@H]5O)=C[C@@H](C)[C@@H]1C[C@H]3OC(=O)[C@H](OC(=O)/C=C(\C)C(C)(C)OC(C)=O)[C@@H]24 (stereo partly specified),-3%
CCOCC(=O)Nc1nnc(COC)s1,-10%
O=C(/C=C/c1ccc(Cl)c(Cl)c1)Nc1cccnc1,6%

# A different layout for part of the listing above:
structure	VDR inhibitor
COCCCNC(=O)c1c(C)nn(-c2ccc(F)cc2)c1-n1cccc1	12%
COc1ccccc1C(=O)Nc1nnc(SCC(=O)NC2CCCC2)s1	4%
Cc1ccc(S(=O)(=O)NNC(=S)Nc2ccc(Cl)cc2)cc1	-3%
Cc1cc(/C=C2/SC(=S)N(c3ccc([N+](=O)[O-])cc3)C2=O)c(C)n1-c1cccnc1	-9%
COc1ccc(-c2noc(CN(C(C)C)S(=O)(=O)c3ccc(Br)cc3)n2)cc1	-1%
CCN(CC)CCCC(C)NC(=O)c1c(NC(=O)c2ccccc2)sc2c1CCCC2 (stereo unspecified)	-5%
CCOC(=O)c1ccc(Nc2ncnc3ccc(C)cc23)cc1	-7%

# Later entries
SMILES,VDR inhibitor
CCCOc1cccc(C2c3c(oc4ccc(F)cc4c3=O)C(=O)N2Cc2ccc3c(c2)OCO3)c1 (stereo unspecified),10%
O=c1oc2ccc(Cl)cc2nc1/C=C(\O)c1ccco1,-23%
CC(=O)Oc1cc(O)c2c(=O)c(OC(C)=O)c(-c3ccc(OC(C)=O)c(OC(C)=O)c3)oc2c1,-25%
CCOc1ccc(C(=O)c2cn(Cc3ccc(F)cc3)c3ccc(F)cc3c2=O)cc1,0%
CCOC(=O)c1c(S(=O)(=O)NCC(=O)NCc2ccccc2)c(C)n(C)c1C,-17%&3%
O=C(COC(=O)COc1ccccc1F)NCc1ccco1,-27%
O=C(O)C1CC(=O)N(Cc2cccs2)C1 (stereo unspecified),19%
COc1ccc(S(=O)(=O)N(C)c2ccc(C(=O)Nc3c(C)n(C)n(-c4ccccc4)c3=O)cc2)cc1,-1%
Cc1cccc(Cn2nc(C)cc2NC(=O)Cn2cc([N+](=O)[O-])cn2)c1,5%
COc1ccc(-c2nnc(SCC(=O)Oc3c(C)cccc3C)o2)cc1OC,15%
CCCCNC(=O)C1CCC(Cn2c(=O)c3sccc3n(CC(=O)N3CCCC3)c2=O)CC1 (stereo unspecified),8%
CCc1cc2c(CN3CCN(CC)CC3)cc(=O)oc2cc1O,0%
CCCCCN(C(=O)CCC(=O)OCC(=O)c1ccc(C(C)(C)C)cc1)c1c(N)n(CCCC)c(=O)[nH]c1=O,9%
CC1(C)CC(NC(=O)C23CCC(C)(/C(=N/O)C2)C3(C)C)CC(C)(C)N1 (stereo unspecified),-10%
Cc1cccc(CSc2nnc3c(n2)[nH]c2ccccc23)c1,-13%
Cc1ccsc1C(=O)OCC(=O)c1cc2ccccc2o1,3%
CCCCNc1nc(Oc2ccc(OCCC)nn2)nc(N(C)C)n1,9%
NC(=O)c1oc2ccccc2c1NC(=O)c1nc2ccccc2s1,5%
Cc1ccc(OCCn2c(CCCO)nc3ccccc32)cc1,9%
CCN(CC)CCCN1C=C2C(=O)C(C)(OC(=O)C3CCCC3)C(=O)C=C2C=C1c1ccsc1 (stereo unspecified),16%
CCN(CC)S(=O)(=O)c1ccc(C)c(NC(=O)CNCc2ccccc2OC)c1,1%
O=C(NC1CCN(C(=O)NCc2ccccc2)CC1)c1ccccc1,5%
COc1ccc(NC(=O)CN(c2ccc(OC)cc2)S(=O)(=O)c2c(C)nn(C)c2C)cc1,32%[activator]
Cn1cncc1C#Cc1c(C=O)[nH]c2ccccc12,-18%
CC(C)Cc1nnc(NC(=O)CCC(=O)N2CC(C)CC(C)C2)s1 (stereo unspecified),3%
COc1ccc(NC(=O)Nc2ccc3c(c2)C(=O)N([C@H](C)CO)C[C@H](C)[C@@H](CN(C)S(C)(=O)=O)O3)cc1,-6%
CC1(C)CC(=O)C(CC2CCCCC2=O)C(=O)C1 (stereo unspecified),-10%
O=C(CSc1n[nH]c(-c2ccncc2)n1)c1ccccc1,-5%
CC[C@]12c3[nH]c4ccc(OC)cc4c3CCN1C(=O)C(CC(=O)NCc1ccc(OC)c(OC)c1)C[C@@H]2C(=O)N1CCN(C(=O)C2CC2)CC1 (stereo partly specified),-18%
C=CCC(C#Cc1ccccc1)N(C)C (stereo unspecified),31%[activator]
O=[N+]([O-])c1ccc(Nc2ccc(N3CCOCC3)cc2)c([N+](=O)[O-])c1,0%
Cc1ccc(S(=O)(=O)N(C)CC(=O)OCC(=O)N2CCCC2=O)cc1,-25%
COc1ccc(CCNC(=O)C(=O)NCCOc2ccccc2)cc1OC,-15%
Cc1cc(NS(=O)(=O)c2ccc(NC(=O)CSc3nc4sc(C)c(C)c4c(=O)[nH]3)cc2)no1,-16%
Cn1c(Cc2ccccc2)nnc1SCC(=O)Nc1ccc(N2CCOCC2)cc1,-24%
NNC(=O)c1ccc(Cn2cc(Cl)cn2)cc1,-11%
c1ccc(Cc2nc3ccccc3n2Cc2ccccc2)cc1,-14%
O=C(Nc1ccccc1)O/N=C1\CCCCC1c1ccc([N+](=O)[O-])cc1[N+](=O)[O-] (stereo unspecified),-5%
Cc1ccc(NC(=O)c2ccc([N+](=O)[O-])o2)cc1S(=O)(=O)N1CCOCC1,-3%
COc1cc(-c2nc(CN3CCN(CC(C)C)C(=O)[C@@H]3C)c(C)o2)ccc1F,-13%
CCc1ccc2c(c1)/C(=C/C(=O)c1cccs1)C(=O)N2,25µM*
CC(O)CC(C(=O)NNc1ccccc1)C(=O)NNc1ccccc1 (stereo unspecified),5%
